# Sfp inh: inhibitors of Bacillus subtilis Sfp phosphopantetheinyl transferase; Potency, µM, inactives show max response, negative = inhibition, actives largely listed as inhibitors; AID 1490; Q9F4F7; Biochemical Sfp PPTase activity, qHTS; 3.5% of 310,000 active; active = well fitted inhibition curve with a large enough effect; inconclusive = small, poorly fitted or top-dose-only effect, or another doubt; inactive = no such curve, though single readings can be large or run the other way;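 note: the enzyme is Sfp with the accession as filed and its product quenches rhodamine fluorescence; potency is the fitted concentration of half-maximal effect; 0% = enzyme reaction without inhibitor and -100% = no enzyme wells; top concentration of the series not given in the record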
#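 Reaction rates are the 30-min fluorescence difference (ex 525, em 598 nm) in wells containing 15 nM Sfp, 5 uM rhodamine-CoA and 12.5 uM BHQ-2-YbbR at pH 7.6 with 10 mM MgCl2.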
# PINK1 expr mod: changes PINK1 expression; Potency, µM (doses to about 76.6 µM), without a hit: at the top dose activation (PINK1 increase), actives largely listed as activators; AID 624263; PINK1 immunofluorescence, high-content cytometry, 24 h; 0.2% of 410,000 active; active = well fitted activation curve with a large enough effect; inconclusive = small, poorly fitted or top-dose-only effect; inactive = flat fitted curve, though single readings scatter; cell line not stated here;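 note: potency is the fitted concentration of half-maximal effect; % of control where 0% means no effect; nearly all actives have a fitted effect of over 65% in size; a mitochondrial uncoupler was the plate control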
#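 Compound titrations (5 concentrations, 24 h) on a stable cell line; DMSO and CCCP controls. Endpoint: fixed-cell PINK1 immunofluorescence with mitochondrial, cell and nuclear markers, scanned by microplate cytometer.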
# ClpP mod: qHTS Assay for Activators of ClpP; AID 651965, 2013; purified B. subtilis ClpP, FRET peptide cleavage, 20 min; 1.9% of 340,000 active; ATP-dependent Clp protease proteolytic subunit (Bacillus subtilis (strain 168)), P80244; Potency, µM (top dose mostly 57.5 µM), without a hit: top-dose activity change, negative = active; active = well fitted falling curve with a large enough effect; inconclusive = small, poorly fitted or top-dose-only effect; inactive = no such curve, though single readings can be large or run the other way; note: potency is the fitted concentration of half-maximal effect; the source files actives as falling curves though it sought activators and does not explain the sign; nearly all actives have a fitted effect of over 65% in size; many hits overshoot -100%
# Target sequence (P80244 whole entry, looked up): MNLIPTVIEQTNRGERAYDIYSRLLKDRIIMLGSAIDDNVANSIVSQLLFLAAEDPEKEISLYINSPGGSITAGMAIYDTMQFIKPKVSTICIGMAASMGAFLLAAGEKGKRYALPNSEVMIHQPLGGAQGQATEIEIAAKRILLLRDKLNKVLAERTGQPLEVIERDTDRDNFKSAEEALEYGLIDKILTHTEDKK
#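 ClpP 10 microg/mL final, pH 8 Tris/KCl buffer with BSA, glycerol, Tween-20; compound pinned in; FRET-FV substrate; RT 20 min; Ex320/Em430; ΔFRET vs ADEP 5.8 microM, DMSO, no enzyme.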
# TRPML1 blocker: human mucolipin-1 channel inhibition; Q9GZU1; activity change, negative = inhibition, % (test concentration not listed); 0.02% of 390,000 active; TRPML1-inducible cells, Ca2+ dye fluorescence, FDSS; stronger effect = lower value; inhibition of EC80 agonist-evoked calcium signal; AID 624415; in the data active means activity change below about -50%; inconclusive means about -30% to -50%; inactive means above about -30%;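 note: stimulus is agonist 54-4 at its EC80 concentration; % is set by controls: 0 for no effect and ±100 for the full control effect; compound concentration not given in the record; the text of the record puts the active cut at -80%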
# Target sequence (Q9GZU1 whole entry, looked up): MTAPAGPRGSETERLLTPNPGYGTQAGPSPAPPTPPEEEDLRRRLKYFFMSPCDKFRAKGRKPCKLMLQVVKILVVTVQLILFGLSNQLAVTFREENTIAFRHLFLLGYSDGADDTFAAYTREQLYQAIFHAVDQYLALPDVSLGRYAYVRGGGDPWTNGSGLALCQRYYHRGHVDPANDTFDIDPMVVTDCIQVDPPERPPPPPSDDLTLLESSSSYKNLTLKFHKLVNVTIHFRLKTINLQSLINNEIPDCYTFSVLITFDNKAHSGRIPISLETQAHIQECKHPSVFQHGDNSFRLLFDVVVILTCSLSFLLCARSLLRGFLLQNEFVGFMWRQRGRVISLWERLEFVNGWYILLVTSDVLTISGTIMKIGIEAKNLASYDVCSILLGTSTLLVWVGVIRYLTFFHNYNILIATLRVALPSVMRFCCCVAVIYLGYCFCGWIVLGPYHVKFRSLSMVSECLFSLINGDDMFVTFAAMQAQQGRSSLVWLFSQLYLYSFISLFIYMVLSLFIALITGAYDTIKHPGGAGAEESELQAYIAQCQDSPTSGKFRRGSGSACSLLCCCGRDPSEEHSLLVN
#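 TRPML1-DL cells, Tet-induced overnight (~16 h, 37 °C) at 1,500 cells/well, were loaded with Ca8 no-wash dye plus quencher for 45-90 min at room temperature. Compounds were pinned during FDSS kinetic reading; agonist 54-4 at EC80 (4 uM final) then added.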
# Menin-MLL FL inh: displaces fluorescein MLL peptide from human menin | Fluorescence polarization, fluorescein-MLL peptide displacement from menin | FP activity change, % at 61.4 µM | 290,000 tested, under 10 active | AID 1766; inconclusive = falling polarisation curve, or a change in total fluorescence; inactive = total fluorescence flat and polarisation flat or rising; no compound was filed as active; the % refers to the polarisation; negative = inhibition;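 note: % of control where 0% means no effect; inhibitors lower the polarisation; unlabelled MLL peptide was the positive control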
# TRPV1 PAM: potentiators of human vanilloid receptor 1 (TRPV1); potentiation, % at 8.33 µM; TRPV1-expressing cells, Fluo-8 calcium influx, capsaicin EC20 potentiation; host cell line not named in the record; control for the full effect not named in the record; AID 540277; 0.02% of 320,000 active; active means potentiation above 80%; inconclusive means 30% to 80%; inactive means below 30%; note: 0% is about no effect
#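 TRPV1-expressing cells were cultured overnight at 35.5C and loaded with Fluo-8 calcium dye for 40 to 90 min at room temperature. After a 10 s baseline, compound was added and calcium influx was read kinetically for 3 min (ex 480/em 520 nm).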
# TRPML1 agonist: agonists of human TRPML1 channel; 0.12% of 410,000 active; Q9GZU1; activation, % (no concentration beside the values); TRPML1-expressing cells, Ca2+ dye fluorescence, FDSS; host cell line not named in the record; reference of the full effect not given here; in the data active = activation above about 50%; inconclusive = about 30% to 50%; inactive = below about 30%; note: 0% is about no effect; the text of the record puts the active cut at 80%
#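 Kinetic FDSS Ca2+ read in Tet-induced TRPML1-DL cells (ABD Ca8 dye plus quencher, 45-90 min RT loading): baseline, then compound, then 110 s agonist window; EC80 agonist 54-4 at 4uM final added afterwards for a 110 s antagonist window.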
# The depositor's hits bear a star; ? = inconclusive; . = no result given; [ ] = dose if it differs, or a comment.
item	Structure	TRPML1 agonist	Sfp inh	PINK1 expr mod	ClpP mod	TRPML1 blocker	TRPV1 PAM	Menin-MLL FL inh
1	CC(C)(C)c1ccc(NC(=O)Nc2ccc(OCC(=O)N3CCOCC3)cc2)cc1	0.6	10%	5.0%	.	14	1	-5.6
2	CCCc1nnc(SCC(=O)NC2CC2)n1C	1.4	11%	4.7%	.	11	1	0.4
3	C#CCNC(=O)C1=C[C@@H](c2cn(C(C)=O)c3ccccc23)C[C@@H](OCCCCO)O1	3.1	11%	-1.4%	-3.3%	6	2	2.2
4	COc1ccc(CN2CCC(C(=O)NCCc3ccc(OC)c(OC)c3)CC2)c(OC)c1	-0.2	13%	-1.5%	-0.6%	2	-9	2.3
5	C[C@@H]1CN([C@@H](C)CO)C(=O)CCCn2nncc2CO[C@H]1CN(C)C(=O)Nc1ccccc1F	-0.4	.	0.1%	0.8%	-2	.	.
6	CCOc1ccc2c(c1)-c1c(ssc1=S)C(C)(C)N2	0.8	-28%	-7.8%[38.3 µM]	-0.2%	-14	-2	2.3
7	CCCCN(C(=O)C(C)Oc1ccc(Br)cc1)c1c(N)n(Cc2ccccc2)c(=O)[nH]c1=O (configuration not stated)	0.5	15%	2.4%	28µM*	12	-11	.
8	Cc1cccc(N2CCN(C(c3ccccc3)c3nnnn3CC3CCCO3)CC2)c1C (configuration not stated)	83*	-9%	5.3%	-2.5%	-14	-13	2.1
9	O=C(CNc1cccc(S(=O)(=O)N2CCCCCC2)c1)Nc1cccc([N+](=O)[O-])c1	0.1	.	18%	2.3%	-4	0	.
10	CCn1c(Cc2ccccc2)n[nH]c1=S	-0.8	-18%	-0.7%	0.2%	-19	3	1.9
11	CCN(Cc1ccccc1)S(=O)(=O)c1ccc2c(c1)NC(=O)CS2	0.8	-3%	-0.7%	-0.1%	2	-8	.
12	CCC(=O)Nc1c(-c2ccc(C)cc2)nc2ccc(C)cn12	0.2	12%	2.2%	-1.9%	11	-31	1.4
13	Cc1scc(C(=O)NNC(=O)CCC(=O)O)c1C	0.0	9%	-0.2%	.	11	14	3.4
14	O=C(O)COc1ccc(C(=O)Cc2ccc3c(c2)OCCCO3)c(O)c1	0.4	13%	-2.4%[38.3 µM]	1.0%	43	9	2.9
15	CCc1ccccc1NC(=S)N(Cc1cccs1)C1CCCC1	0.1	16%	0.3%	.	-7	-5	-1.3
16	Cc1ccc(C)c(NC(=O)CSc2nc3ccc(N4C(=O)c5ccccc5C4=O)cc3s2)c1	1.1	-19%	-1.2%	1.3%	1	0	4.5
17	CCc1ccc(NC(=O)CSc2nc3c(sc4ccccc43)c(=O)n2CCCOC(C)C)cc1	-0.3	.	-0.5%	1.9%	?	.	.
18	CCc1c(-c2n[nH]c(=S)n2Cc2ccccc2)csc1C	-0.1	-11%	3.0%	?	12	-15	0.9
19	CCN(CC)CCNC(=S)NC(=O)c1cn(-c2ccccc2)nc1-c1ccc(OC)cc1	0.8	-6%	2.9%	-5.8%	-4	-4	-0.4
20	COc1ccc(C(=O)NCCn2cc(SCC(=O)NCC3CCCO3)c3ccccc32)cc1OC (configuration not stated)	-0.5	-8%	1.4%	4.8%	3	-4	2.3
21	COc1ccc(C2=NO[C@@H]3[C@@H]4C[C@@H]([C@H]5C(=O)N(c6ccc7c(c6)OCO7)C(=O)[C@@H]45)[C@H]23)cc1OC	-0.1	-2%	-0.4%	-4.4%	6	2	3.8
22	COc1ccc(/C=C/C(=O)OCC(=O)c2c(C)[nH]c3ccccc23)cc1OC	0.5	-3%	-1.2%	-8.6%	-23	-2	7.6
23	Cc1ccc(-n2c(SCC(=O)Nc3ccc4cn[nH]c4c3)nnc2-c2ccco2)cc1	3.4	-2%	0.1%	-3.7%	5	-1	1.9
24	CCN(CC)Cc1ccc(OC)c(Cl)c1	-0.4	25%	0.6%	0.9%	-26	13	-1.5
25	CCCNC(=O)CN1C(=O)NC(CCSC)C1=O (configuration not stated)	-0.5	12%	1.7%	1.7%	1	6	1.3
26	COc1ccc(OC)c(NC(=O)C(=O)NCc2ccncc2)c1	0.0	0%	1.6%	.	6	-1	5.0
27	NC(=O)c1ccsc1NC(=O)COC(=O)/C=C/c1ccccc1	1.2	.	5.8%	.	5	-15	.
28	Cc1nc2sc(C(c3cccc(F)c3)N3CCOCC3)c(O)n2n1 (configuration not stated)	-0.7	24%	-1.0%	-3.4%	-11	4	1.1
29	CCOc1ccc2nc(NC(=O)c3nc(SCc4ccccc4F)ncc3Cl)sc2c1	-0.4	.	3.2%	0.9%	7	.	.
30	CCOC(=O)c1[nH]c2ccccc2c1NC(=O)C(CC)CC	-1.2	26%	6.8%	-12%	-23	.	4.6

# Rewritten in transposed form: 2 of the compounds above.
20) COc1ccc(C(=O)NCCn2cc(SCC(=O)NCC3CCCO3)c3ccccc32)cc1OC (configuration not stated)
19) CCN(CC)CCNC(=S)NC(=O)c1cn(-c2ccccc2)nc1-c1ccc(OC)cc1
Screen / compound no.	20	19
TRPML1 agonist	-0.5	0.8
Sfp inh	-8%	-6%
PINK1 expr mod	1.4%	2.9%
ClpP mod	4.8%	-5.8%
TRPML1 blocker	3	-4
TRPV1 PAM	-4	-4
Menin-MLL FL inh	2.3	-0.4

# Exported screen by screen: four of the compounds above
21) COc1ccc(C2=NO[C@@H]3[C@@H]4C[C@@H]([C@H]5C(=O)N(c6ccc7c(c6)OCO7)C(=O)[C@@H]45)[C@H]23)cc1OC
22) COc1ccc(/C=C/C(=O)OCC(=O)c2c(C)[nH]c3ccccc23)cc1OC
23) Cc1ccc(-n2c(SCC(=O)Nc3ccc4cn[nH]c4c3)nnc2-c2ccco2)cc1
24) CCN(CC)Cc1ccc(OC)c(Cl)c1

Compound	21	22	23	24
TRPML1 agonist	-0.1	0.5	3.4	-0.4
Sfp inh	-2%	-3%	-2%	25%
PINK1 expr mod	-0.4%	-1.2%	0.1%	0.6%
ClpP mod	-4.4%	-8.6%	-3.7%	0.9%
TRPML1 blocker	6	-23	5	-26
TRPV1 PAM	2	-2	-1	13
Menin-MLL FL inh	3.8	7.6	1.9	-1.5

# (list continues)
item	Structure	TRPML1 agonist	Sfp inh	PINK1 expr mod	ClpP mod	TRPML1 blocker	TRPV1 PAM	Menin-MLL FL inh
31	CC1Cc2ccccc2N1C(=O)Cc1cccs1 (configuration not stated)	0.9	9%	?	0.0%	3	8	4.6
32	CCOc1ccccc1NC(=O)Nc1cnccn1	-0.7	3%	-0.2%	.	-4	-20	-10.0
33	CCc1ccc(NC(=O)C(=O)NCCN2CCN(C(=O)c3ccco3)CC2)cc1	-0.3	6%	1.1%	0.5%	15	10	3.4
34	CCN1C(=O)[C@H]2[C@@H](c3ccc(-c4cc(C(C)=O)cs4)cc3)N3CCC[C@@]3(C(=O)OC)[C@H]2C1=O	-0.8	.	0.8%	-7.5%	-1	?	.
35	C=CC[C@H](CC(=O)NCCO)C(=O)NCCOC(=O)[C@@H](CC=C)CC(=O)OC(C)(C)C	-0.1	.	-0.4%	-2.2%	11	.	.
36	O=C(c1cccnc1)N1CCN(S(=O)(=O)c2ccc(Cl)cc2)CC1	-0.8	10%	-2.2%	-1.4%	35	-18	5.9
37	CCc1nc2ccc(C(=O)N(C)CCCN(C)C)cn2c1N(C=O)CCC(C)C	-0.1	.	2.2%	-7.8%	.	.	.
38	Cc1ccccc1NC(=S)N(Cc1ccccc1)Cc1cccnc1	-0.6	16%	-1.4%	.	12	-8	-0.9
39	Cc1sc2ncnc(NCc3cccs3)c2c1C	-0.6	8%	2.4%	0.0%	7	1	4.1
40	COc1ccc2cc(C#N)c(SCC(=O)N3CCCC3)nc2c1	-0.9	-7%	-0.5%	?	12	-11	6.4
41	CCOC(=O)CCCNC(=O)c1cncc(Br)c1	0.0	20%	-2.7%[38.3 µM]	0.1%	-6	-8	3.7
42	COC(=O)N/N=C/c1ccc(-c2ccccc2Cl)o1	-0.6	-4%	1.5%	0.7%	3	-1	-0.6
43	Cc1ccc(/C=C(/NC(=O)c2ccccc2)C(=O)NC(Cc2c[nH]c3ccccc23)C(=O)O)cc1 (configuration not stated)	-0.1	28%	4.5%	.	1	-1	-0.4
44	Cc1nn(Cc2c(Cl)cccc2Cl)c(C)c1NC(=O)c1cn(-c2ccccc2)nc1-c1ccccc1	-0.8	20%	1.8%	2.1%	1	10	1.3
45	O=C1S/C(=C\c2ccccc2)C(=O)N1CC(O)Cn1c2ccccc2c2ccccc21 (configuration not stated)	0.7	-8%	17%	0.8%	-12	27	3.3
46	CCN(CC)C(=O)CN(Cc1ccccc1)S(=O)(=O)c1ccc(F)cc1	-0.7	13%	-0.4%	0.7%	55	9	0.0
47	NC(=O)c1c(NC(=O)c2ccco2)sc2c1CCC2	-0.4	-8%	-5.0%[38.3 µM]	42%	17	18	0.8
48	Cc1cc2c(cc(C(=O)OC(C)C(=O)NCc3ccc(F)cc3)n2C)o1 (configuration not stated)	0.2	.	1.0%	.	5	.	.
49	COCCCNC(=O)CCn1nc(-c2ccc(Cl)cc2)ccc1=O	3.6	11%	-2.3%	-16%	11	-7	1.2
50	COc1ccc(CCNc2nc(-c3ccncc3)cs2)cc1OC	.	?	1.0%	-4.3%	.	-11	1.8
51	Cc1ccc(-c2ccc(CN3C(CC(C)C)C(=O)N(Cc4cn(CCC5OCCO5)nn4)CCS3(=O)=O)cc2)cc1 (configuration not stated)	0.4	.	10%	-2.0%	13	.	.
52	CCOC(=O)CSC1=Nc2ccccc2C2=NC(CC(=O)NCc3cccs3)C(=O)N12 (configuration not stated)	0.0	4%	-1.2%	-9.6%	-1	0	-0.3
53	CC(=O)N1CCC2(CCCN(c3ncccn3)C2)CC1	.	22%	-0.3%	.	.	.	0.3
54	Cc1ccc(-n2nnnc2CNC(=O)c2ccc([N+](=O)[O-])o2)cc1C	0.3	.	5.6%	0.8%	-2	0	.
55	COc1ccc(NC(=O)CSc2ncccc2C(=O)O)cc1OC	-0.3	.	0.4%	-1.4%	-19	.	.
56	CC(CCc1ccccc1)NC(=O)COC(=O)c1cc(NS(=O)(=O)c2ccc(Cl)c([N+](=O)[O-])c2)ccc1O (configuration not stated)	-0.5	18%	0.6%	-3.5%	-3	27	.
57	CCCNC(=O)COC(=O)c1ccc(-c2ccccc2)cc1	0.2	3%	5.5%	.	-9	-1	-4.0

# Source: PubChem (National Center for Advancing Translational Sciences (NCATS))
